# NPYLR7 agonist = activates Aedes aegypti NPYLR7 receptor; actives 0.15% (n = 270,000); AID 1259423; HEK293T NPYLR7/Galpha15, GCaMP6s calcium fluorescence; activation, % at 10 µM; in the data active = activation above about 40%;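 also: 0% = vehicle and 100% = reference agonist at the receptor; some compounds past the cut are filed as inactive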
# NPYLR7 agonist max-min = recorded beside NPYLR7 agonist, whose call it bears; activation, %; measured here: Max-Min RFU normalised activation; some inactives read as strong as hits;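 span of the calcium signal over five minutes; 0% = vehicle and 100% = native peptide agonist; compound fluorescence can raise it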
# Active calls of the source: *; & = joins results of further samples. Some of the compounds tested. The share of hits here may be higher or lower than overall.
# The opening 4 records, to show the layout:
nr | canonical_smiles | NPYLR7 agonist | NPYLR7 agonist max-min
1 | CCn1c(N2CCN(Cc3c(Cl)cccc3Cl)CC2)nc2c1c(=O)[nH]c(=O)n2C | 3 | 27
2 | CCc1ccc(S(=O)(=O)c2cnc(SCC(=O)Nc3ccc(OC)cc3OC)[nH]c2=O)cc1 | 9 | 9
3 | CC(C)Cn1c(=S)[nH]c2sc3c(c2c1=O)CCC3 | 1 | 9
4 | CCC12CC3CC(O)(C1)CC(C(=O)NCCc1cc(=O)[nH]c(C)n1)(C3)C2 (stereo not drawn) | -4 | -9

# The whole of this part (from the top)
nr | canonical_smiles | NPYLR7 agonist | NPYLR7 agonist max-min
1 | CCn1c(N2CCN(Cc3c(Cl)cccc3Cl)CC2)nc2c1c(=O)[nH]c(=O)n2C | 3 | 27
2 | CCc1ccc(S(=O)(=O)c2cnc(SCC(=O)Nc3ccc(OC)cc3OC)[nH]c2=O)cc1 | 9 | 9
3 | CC(C)Cn1c(=S)[nH]c2sc3c(c2c1=O)CCC3 | 1 | 9
4 | CCC12CC3CC(O)(C1)CC(C(=O)NCCc1cc(=O)[nH]c(C)n1)(C3)C2 (stereo not drawn) | -4 | -9
5 | CN(C)c1ccc(CNC(=O)c2ccc(C(F)(F)F)nc2)cc1 | 1 | 1
6 | CCOC(=O)c1c(N)/c(=C\c2cccnc2)c2n1C(=O)C(c1cccnc1)SC=2C(=O)OC (stereo not drawn) | 2 | 22
7 | CCc1nc2ccc(C(=O)N3CCCC(C(N)=O)C3)cn2c1N(C)Cc1ccc(Cl)cc1 (stereo not drawn) | -2 | -5
8 | COc1ccc(-c2c(C)nn(-c3ccccc3)c2C)c(C(=O)N(C)CCNC(=O)C(F)(F)F)c1 | 0 | -3
9 | NCCNC(=O)c1ncsc1-c1cccc(F)c1 | 0 | -8
10 | Brc1ccc(Nc2nc3ccccc3n3cnnc23)cc1 | 3 | 3
11 | COCCCN(CC(=O)N1CCc2sccc2C1c1ccccc1)S(=O)(=O)c1c(C)cc(C)cc1C (stereo not drawn) | -2 | 9
12 | O=C1c2cccc3cccc(c23)C(=O)N1CCO | 3 | 2
13 | CCOC(=O)CCCSc1nnc(-c2cccc(C)c2)n1-c1ccccc1 | 16 | 21
14 | Fc1ccc(CNc2ncnc3[nH]ncc23)cc1 | 12 | 10
15 | CC(=O)Nc1nc(C)c(C(C)C)s1 | -12 | -20
16 | Cc1noc(C)c1CNc1cc2c(cc1F)CCC(=O)N2 | -1 | -2
17 | CC(=O)N1CCN(Cc2cccc(N)n2)CC1 | 2 | 0
18 | Cc1nc(Nc2ccc(NC(=O)Cc3ccccc3)cc2)cc(-n2ccnc2)n1 | -16 | -19
19 | O=c1[nH]c(=S)[nH]nc1-c1ccc2c(c1)OCCO2 | -3 | -3
20 | Cc1oc2c(c(C)cc3o/c(=N\O)c4c(c32)CCC4)c1C | -8 | -12

# Look-ups from above:
# Cc1oc2c(c(C)cc3o/c(=N\O)c4c(c32)CCC4)c1C – NPYLR7 agonist: -8
# CCn1c(N2CCN(Cc3c(Cl)cccc3Cl)CC2)nc2c1c(=O)[nH]c(=O)n2C – NPYLR7 agonist: 3
# COc1ccc(-c2c(C)nn(-c3ccccc3)c2C)c(C(=O)N(C)CCNC(=O)C(F)(F)F)c1 – NPYLR7 agonist: 0
# CCOC(=O)CCCSc1nnc(-c2cccc(C)c2)n1-c1ccccc1 – NPYLR7 agonist: 16
# NCCNC(=O)c1ncsc1-c1cccc(F)c1 – NPYLR7 agonist max-min: -8
# CCOC(=O)c1c(N)/c(=C\c2cccnc2)c2n1C(=O)C(c1cccnc1)SC=2C(=O)OC (stereo not drawn) – NPYLR7 agonist: 2

# Next records.
nr | canonical_smiles | NPYLR7 agonist | NPYLR7 agonist max-min
21 | COC(=O)c1cccc(C(=O)NC2CCCN(C3CCCCCC3)C2)c1 (stereo not drawn) | 15 | 2
22 | Cc1c(NC(=O)CSCc2ccccc2Cl)c(=O)n(-c2ccccc2)n1C | 0 | 4
23 | O=C(NCCNC(=O)[C@H]1CCCN1C(=O)/C=C/c1ccccc1)c1ccc(F)cc1 | -13 | -1
24 | Cc1csc2ncc(C(=O)N(Cc3ccccc3)c3ccccc3)c(=O)n12 | 8 | 2
25 | CC1CCC(=O)N1c1ccc(NS(=O)(=O)NCc2ccccc2)cc1 (stereo not drawn) | 1 | 5
26 | Nc1ncnc2c1ncn2CCN1CCOCC1 | 9 | 2
27 | Cc1cccc2sc(N(CCN(C)C)C(=O)c3ccc(Br)s3)nc12 | -7 | -11
28 | Cc1cc2c(c(=O)o1)C(c1cccnc1)C(C#N)C(=N)O2 (stereo not drawn) | 12 | 7
29 | N=C(N)SCc1ccc(CSC(=N)N)cc1 | -1 | 19
30 | COC(=O)Cn1c(=O)c2c(nc3n(-c4ccc(C(F)(F)F)cc4)c(C)cn23)n(C)c1=O | 2 | 1
31 | CCOC(=O)N1CCN(/C=C(\C#N)C(=O)NCCc2ccccc2)CC1 | 8 | 7
32 | CCc1noc(C)c1C(=O)Nc1cc(F)ccc1N1CCCCC1 | -2 | -4
33 | NCC1CCN(C(=O)c2cccc(-c3cc4ccccc4oc3=O)c2)C1 (stereo not drawn) | 4 | 1
34 | Cc1ccc2nc(C)c(NC(=O)c3ccc(C(F)(F)F)cc3)c(=O)n2c1 | 7 | 2
35 | Cc1cc(C)c(C)c(OCCC(=O)N2CCCN(C(N)=O)CC2)c1 | -15 | -18
36 | Cn1c(-c2ccc3nc(N)sc3c2)nc2cc(N)ccc21 | 2 | 1
37 | O=C1c2ccccc2C(=O)c2oc(-c3cc([N+](=O)[O-])cc([N+](=O)[O-])c3)nc21 | 3 | 1
38 | CCn1ccnc1CS(=O)(=O)c1nccs1 | 2 | 0
39 | COC(=O)CCCC(=O)N1CCN(c2nc3nccc(C(C)(C)C)n3n2)CC1 | 2 | 2
40 | O=C(CC1=CCCCC1)NC1CC(=O)N(Cc2ccc(F)cc2)C1 (stereo not drawn) | 6 | 6
41 | CCC(C(=O)N1CCc2c(nc(-c3cccnc3)[nH]c2=O)C1)n1cccn1 (stereo not drawn) | 10 | 6
42 | COc1ccc(S(=O)(=O)Oc2ccc(CN(CC3CCCO3)C(=O)NC(C)(C)C)cc2)cc1 (stereo not drawn) | -1 | 11
43 | CCn1ncnc1C1CC(=O)Nc2cc3[nH]ncc3cc21 (stereo not drawn) | -4 | -9
44 | Cc1sc2ncnc(N3C[C@@H]4[C@H](C3)[C@H]3CC[C@@H]4O3)c2c1C | -1 | 1
45 | O=C(NCc1ccc2c3c(cccc13)C(=O)N2)c1ccc(Br)cc1 | -4 | -5
46 | COC(=O)CC1CN(C(=O)Cc2csc(-c3ccccc3)n2)CCO1 (stereo not drawn) | 1 | 13
47 | Cc1ccc(-n2c(=O)[nH]c3c(C(=O)Nc4cccc(C)c4)cn(C)c3c2=O)cc1 | 14 | 12
48 | C#CCCOC(=O)c1ccncn1 | 4 | 5
49 | N#CC1C(=O)NC(=O)C(C(=O)S)C12CCCCC2 (stereo not drawn) | -4 | -7
50 | C=C(C)C1CC=C(C(=O)O)CC1 (stereo not drawn) | 2 | 24
51 | CCn1cnnc1C(C)NC(=O)c1ccc2c(c1)nnn2C (stereo not drawn) | 0 | -2
52 | COc1ccc(-n2ccnc(SCc3ccccc3)c2=O)cc1Cl | 3 | 3
53 | O=C(Nc1cccc(C2SCC(=O)N2c2ccc(C(F)(F)F)cc2)c1)c1cccs1 (stereo not drawn) | -13 | -11
54 | O=C(/C=C(/c1ccccc1)C(F)(F)F)c1cccs1 | -1 | -3
55 | CC(C)N(CC1CC1)C(=O)C[C@@H]1C[C@@H]2C=C[C@H]1C2 | -4 | -4
56 | COc1ccc(-n2nc(C#N)c(C)c(C(=O)O)c2=O)cc1 | 3 | 7
57 | CC(=O)Nc1cccc(NCC(=O)Nc2ccc(C#N)cc2)c1C | 6 | 2
58 | Cc1ccc(S(=O)(=O)n2nc(C)c(S(=O)(=O)N3CCCC(C)C3)c2C)cc1C (stereo not drawn) | 1 | 1
59 | CCOc1ccc(C(=O)Nn2cnc3c(cnn3-c3ccc(C)c(C)c3)c2=O)cc1 | 3 | -2
60 | c1n[nH]c(SCCCCSc2ncn[nH]2)n1 | 3 | 0
61 | COc1ccccc1C1CCCN1C(=O)CSc1ccc2nnc(-c3cccnc3)n2n1 (stereo not drawn) | -5 | -7
62 | Cn1cc(NC(=O)c2cccc(CN3CCCC(O)C3)c2)cn1 (stereo not drawn) | 0 | -2
63 | O=C(COc1ccc(Cl)cc1)N=Nc1c(O)[nH]c2ccccc12 | -3 | -6
64 | COC(=O)C1=C(C)N(C)C(=S)NC1c1ccc(OC)cc1 (stereo not drawn) | -2 | 4
65 | CC(C)CCN1CCNC(=O)C1CC(=O)N1CCN(c2cnccn2)CC1 (stereo not drawn) | 1&4 | -1&1
66 | Nc1ccc(Oc2ccnc3cc(Cl)ccc23)c(F)c1 | 3 | 4
67 | COc1ccc(-c2cc(C(=O)N3CCC4(CC3)OCCO4)c(C)n2-c2ccc(F)cc2F)cc1 | -21 | -21
68 | COC(=O)c1cc2n(n1)CCN(C(=O)c1cc(CC(C)C)nn1C)C2 | -6 | -14
69 | O=C(c1ccn[nH]1)N(Cc1cccc(O)c1)CC1CC1 | 2 | -2
70 | O=S1(=O)CCCC(NCc2cc(Cl)cc(Cl)c2OC(F)F)C1 (stereo not drawn) | -11 | -10
71 | CCOc1nc(-c2ccc(C)cc2)n(-c2ccc(NC(=O)c3ccc(C(C)(C)C)cc3)cc2)n1 | 16 | 16
72 | CC(C)CC(=O)Nc1cccc(CNCc2csc(C(C)C)n2)c1 | 6 | 7
73 | COC(=O)c1cc(Cl)c2c(c1)CC(CNC(=O)c1cccc([N+](=O)[O-])c1)O2 (stereo not drawn) | 31 | 22
74 | Cc1nc2ccccc2n1CCC(=O)N1CCC2(CCCO2)CC1 | 6 | 2
75 | Cc1cccc(-n2ccc3nc(N4CCCCC4)ncc3c2=O)c1 | 13 | 8
76 | Cc1nn(C)c2ncc(C(=O)Nc3cc(C(C)(C)C)nn3-c3ccccc3Cl)c(Cl)c12 | 4 | -1
77 | COC(=O)CNC(=O)COC(=O)c1ccc([N+](=O)[O-])o1 | -12 | -22
78 | O=c1c2c(C3CC3)csc2[nH]c(=S)n1C1CCCCC1 | -2 | -2
79 | O=C(Cc1nc2ccccc2o1)NCc1ccc2nonc2c1 | -10 | -12
80 | COc1ccc(CN(CC(C)C)C(=O)c2cc([N+](=O)[O-])cc([N+](=O)[O-])c2)cc1OS(C)(=O)=O | -4 | -3

# As a short view, some entries already given:
nr | canonical_smiles | NPYLR7 agonist | NPYLR7 agonist max-min
61 | COc1ccccc1C1CCCN1C(=O)CSc1ccc2nnc(-c3cccnc3)n2n1 (stereo not drawn) | -5 | -7
62 | Cn1cc(NC(=O)c2cccc(CN3CCCC(O)C3)c2)cn1 (stereo not drawn) | 0 | -2
63 | O=C(COc1ccc(Cl)cc1)N=Nc1c(O)[nH]c2ccccc12 | -3 | -6
64 | COC(=O)C1=C(C)N(C)C(=S)NC1c1ccc(OC)cc1 (stereo not drawn) | -2 | 4
65 | CC(C)CCN1CCNC(=O)C1CC(=O)N1CCN(c2cnccn2)CC1 (stereo not drawn) | 1&4 | -1&1
66 | Nc1ccc(Oc2ccnc3cc(Cl)ccc23)c(F)c1 | 3 | 4
67 | COc1ccc(-c2cc(C(=O)N3CCC4(CC3)OCCO4)c(C)n2-c2ccc(F)cc2F)cc1 | -21 | -21

# (more compounds)
nr | canonical_smiles | NPYLR7 agonist | NPYLR7 agonist max-min
81 | COc1ccc(S(=O)(=O)NC(=O)C2(C)CCN2C(=O)CCC2CCCC2)cc1 (stereo not drawn) | 2 | 0
82 | O=C(CN1CCNCC1)N1CC[C@@H](c2ccc3ccccc3c2)[C@H](O)C1 | 8 | 3
83 | COc1ccccc1CN1CC(C(=O)NC2CCOCC2)CCC1=O (stereo not drawn) | -1 | -3
84 | O=C(NCCCNC(=O)[C@H]1CCCN1C(=O)COCc1ccccc1)c1ccccc1 | 0 | 2
85 | COc1ccccc1C1CN(CCNC(=O)CCc2ccc3c(c2)OCO3)Cc2ccccc2O1 (stereo not drawn) | 1 | 0
86 | COC(=O)c1cc2n(n1)CCN(c1ncccn1)C2 | 1 | -8
87 | Cc1cccnc1C1=NOC(C)C(=O)N1Cc1ccc2c(c1)OCO2 (stereo not drawn) | 11 | 7
88 | CCOc1ccc(-n2c(O)c(C3=c4ccccc4=NC3=O)sc2=S)cc1 | -10 | -14
89 | Cc1ccsc1CN(Cc1ccccc1)C(=O)CN(C(=O)Nc1cccc(Br)c1)C1CCCCC1 | -2 | 4
90 | COCCN(Cc1nc2ccccc2n1C)CC1CCCN(C2Cc3ccccc3C2)C1 (stereo not drawn) | -3 | -7
91 | Cc1ccc(OC(=O)Cn2cnc3c2c(=O)n(C)c(=O)n3C)cc1C | 0 | -3
92 | CCCCNC(=O)[C@@H]1CC=CC[C@@H]1C(=O)N1C[C@H]2C[C@H](O)[C@H](O)C[C@H]2C1 | 5 | 14
93 | CC(C)(C)c1cc2nc(-c3ccccc3F)cc(C(=O)NCc3ccc(F)cc3)n2n1 | -7&20 | -5&27
94 | CC(C)CC(C)NC(=O)c1cccnc1Oc1ccc(Cl)cc1 (stereo not drawn) | -7 | -11

# High-throughput results (PubChem)
